RE007 growth inh – less growth of the S. pombe RE007 Vpr strain. S. pombe RE007 Vpr strain, BacTiter-Glo ATP luminescence, 24 h; control for the full effect not named in the record. Potency, µM (series often up to 92.2 µM), inactives show at the top dose activity change, negative = less growth. hit rate 0.21% among 360,000. AID 651644; active = well fitted falling curve with a large enough effect; inconclusive = small, poorly fitted or top-dose-only effect; inactive = no such curve, though single readings can be large or run the other way;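 also: % is scaled to controls: 0 for no effect and ±100 for the full control effect; nearly all actives have a fitted effect of over 50% in size; the assay follows cell death caused by Vpr and the record does not say whether a fall means rescue or toxicity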
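Fission yeast RE007 carrying one integrated HIV-1 vpr copy, seeded at OD 0.01 in PMG+AL medium with 23 nL pinned compound. Grown 24 h at 30 degrees; viability read by BacTiter-Glo luminescence after 5 min.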
Cruzain inh Det – blocks cruzain activity in presence of Triton detergent; hit rate 0.43% among 200,000; AID 1478; purified cruzain, Z-FR-AMC fluorescence, 0.01% Triton; Potency, µM, without a hit: max response, negative = inhibition, hits mostly inhibitors; P25779; active = well fitted curve in the direction sought with a large enough effect; inconclusive = small, poorly fitted or top-dose-only effect, or another doubt; inactive = no such curve, though single readings can be large; an effect the other way counts as inactive or inconclusive;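 also: plate controls were neutral wells for no effect and buffer without enzyme for full effect; nearly all actives have a fitted effect of over 40% in size; top concentration of the series not given in the record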
Target sequence (P25779 123-467 limits assumed): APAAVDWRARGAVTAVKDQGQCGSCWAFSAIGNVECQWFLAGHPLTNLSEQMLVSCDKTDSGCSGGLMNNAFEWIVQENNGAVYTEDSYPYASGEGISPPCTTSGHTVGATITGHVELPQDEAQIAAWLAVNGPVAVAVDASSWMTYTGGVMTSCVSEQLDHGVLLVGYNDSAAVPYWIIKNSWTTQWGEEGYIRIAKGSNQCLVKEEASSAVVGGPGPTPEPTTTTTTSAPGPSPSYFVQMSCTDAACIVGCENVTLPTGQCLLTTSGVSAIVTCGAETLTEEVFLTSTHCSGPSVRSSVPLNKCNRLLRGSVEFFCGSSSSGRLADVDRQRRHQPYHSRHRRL
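Detergent-containing run (0.01% Triton X-100) in acetate buffer pH 5.5 with 5 mM DTT: enzyme at 1.5 nM final, 15 min compound preincubation at room temperature, then 2 uM Z-FR-AMC substrate. Activity taken as 60 s fluorescence increase at 360/450 nm.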
SARS PLpro yeast – blocks SARS-CoV papain-like protease in a yeast assay; Potency, µM (doses to about 32.9 µM), for the others: at the top dose activity, positive = growth rescue; S. cerevisiae expressing SARS-CoV PLpro, growth rescue; control for the full effect not named in the record; hit rate 0.19% among 330,000; also: 0% is about no effect; nearly all actives have a fitted effect of over 55% in size; growth read by luminescence after 48 h
LASV entry inh – blocks Lassa virus binding to or entry into cells; hit rate 1.2% among 300,000; Lassa virus pseudotype entry inhibition, cell reporter; control for the full effect not named in the record; Potency, µM (doses to about 37.9 µM), inactives show top-dose activity change, negative = inhibition, hits mostly inhibitors; active means well fitted inhibition curve with a large enough effect; inconclusive means small, poorly fitted or top-dose-only effect, or effect the other way; inactive means flat fitted curve, though single readings scatter; tested in HEK293 cells; also: % is scaled to controls: 0 for no effect and ±100 for the full control effect; nearly all actives have a fitted effect of over 50% in size; luciferase read-out
NS1 inh – influenza NS1 inhibition | S. cerevisiae slowed by influenza A NS1, growth recovery by OD600 | Potency, µM (series often up to 46.1 µM), for the others: top-dose activity, positive = more growth | hit rate 0.4% among 270,000; also: actives are rising curves; nearly all actives have a fitted effect of over 50% in size
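A cell-based growth assay was used: compounds that relieve NS1-induced slow growth of budding yeast raise OD600. Assay medium was yeast nitrogen base with ammonium sulphate and -URA supplement, pH 6.0, with 2% galactose.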
StopGo reporter – FMDV 2A StopGo reporter, luciferase signal; hit rate 1.2% among 410,000; AID 1159524; Potency, µM (doses to about 57.9 µM), for the others: top-dose signal change, negative = less light; human cells with a luciferase reporter of 2A StopGo recoding; control for the full effect not named in the record; active = well fitted falling curve with a large enough effect; inconclusive = small, poorly fitted or top-dose-only effect; inactive = no such curve, though single readings can be large or run the other way; tested in HEK293T cells; also: % is scaled to controls: 0 for no effect and ±100 for the full control effect; nearly all actives have a fitted effect of over 45% in size; luciferase light after 4 h
Marburg entry inh – blocks Marburg virus binding to or entry into cells | AID 540276 | Potency, µM (highest dose often 37.8 µM), without a hit: at the top dose activity change, negative = inhibition, actives largely listed as inhibitors | hit rate 1.8% among 300,000 | Marburg virus pseudotyped entry inhibition, cell reporter; control for the full effect not named in the record; about a third of the inactives were read at about 46 µM; active = well fitted inhibition curve with a large enough effect; inconclusive = small, poorly fitted or top-dose-only effect, or effect the other way; inactive = flat fitted curve, though single readings scatter; tested in HEK293 cells; about a fifth of its hits are not listed in these tables; also: % is scaled to controls: 0 for no effect and ±100 for the full control effect; luciferase read-out
Cruzain inh noDet – inhibitors of Trypanosoma cruzi cruzain without detergent. P25779. purified cruzain, Z-FR-AMC fluorescence, no detergent. Potency, µM, inactives show max response, negative = inhibition, actives largely listed as inhibitors. hit rate 2.3% among 200,000. AID 1476; active = well fitted curve in the direction sought with a large enough effect; inconclusive = small, poorly fitted or top-dose-only effect, or another doubt; inactive = no such curve, though single readings can be large; an effect the other way counts as inactive or inconclusive;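 also: plate controls were enzyme without inhibitor for no effect and buffer without enzyme for full effect; nearly all actives have a fitted effect of over 40% in size; top concentration of the series not given in the record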
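Detergent-free condition (0.00005% Triton X-100) in acetate buffer pH 5.5 with DTT. 1.5 nM enzyme and compound were pre-mixed 15 min, then 2 uM Z-FR-AMC substrate added; reaction progress from fluorescence change between first and third reads (60 s).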
An asterisk follows results filed as active; [ ] = dose if it differs, or a comment. Unless noted, calls follow the shape of the dose curve; as a rule, active means well fitted rising curve with a large enough effect; inconclusive means small, poorly fitted or top-dose-only effect; inactive means no such curve, though single readings can be large or run the other way. Potency is read from the fitted curve at half-maximal effect. Outcome played no part in choosing rows, and some 4.6% of all compounds hit somewhere here.

Screening Cc1cccc(/C=N/NC(=O)c2ccc(NC(=O)c3ccc(F)cc3)cc2)n1 returned RE007 growth inh -5%, SARS PLpro yeast 0%, LASV entry inh 26%, NS1 inh -2%, StopGo reporter -25% and Marburg entry inh 16%[46.1 µM].
For COc1ccc(CCNC(=O)c2c(C)nc3ccccn23)cc1 the results were RE007 growth inh 1%, SARS PLpro yeast -2%, LASV entry inh -4%, StopGo reporter -12% and Marburg entry inh inconclusive.
Screening Cc1ccc(S(=O)(=O)NC2CCCCC2)c(C)c1NS(C)(=O)=O returned RE007 growth inh 5%, SARS PLpro yeast 0%, LASV entry inh 22%, NS1 inh -9%, StopGo reporter 8% and Marburg entry inh -14%[46.1 µM].
CCOC(=O)c1ccc(Nc2c(-c3cccc(O)c3)nc3nc[nH]n23)cc1 was read as Cruzain inh Det -5.2%, LASV entry inh inconclusive, StopGo reporter -8% and Cruzain inh noDet -12%.
CN1CCN(S(=O)(=O)c2ccc(NC(=O)c3ccc([N+](=O)[O-])cc3)cc2)CC1 was read as RE007 growth inh 2%, LASV entry inh 29%[46.1 µM], StopGo reporter 14% and Marburg entry inh inconclusive.
CCOC(=O)/C(C#N)=C/C1=C(N2CCOCC2)C(C)(C)OCC1 was read as RE007 growth inh -14%, SARS PLpro yeast 1%, LASV entry inh 9%, NS1 inh -3%, StopGo reporter -6% and Marburg entry inh 9%.
Screening O=C(c1ccccc1)N(Cc1ccco1)Cc1cccs1 returned Cruzain inh Det -2.7%, LASV entry inh inconclusive, StopGo reporter -3%, Marburg entry inh 2%[46.1 µM] and Cruzain inh noDet -6%.
Screening COc1ccc(C(=O)OCC[N+]2(C)CCCCC2)cc1 returned RE007 growth inh 4%, SARS PLpro yeast -2%, StopGo reporter -5% and Marburg entry inh 13%[46.1 µM].
`Cc1ccc(S(=O)(=O)N2CCN(c3ncnc4sccc34)CC2)cc1C` gave RE007 growth inh 0%, SARS PLpro yeast 5%, LASV entry inh inconclusive, StopGo reporter 11µM* and Marburg entry inh inconclusive.
Clc1ccc(C[n+]2cc(-c3ccccc3)n3c2CCC3)cc1 was read as RE007 growth inh -11%, SARS PLpro yeast 0%, LASV entry inh -8%, NS1 inh 1%, StopGo reporter -29% and Marburg entry inh 3%.
Screening Cc1cccc2cc(CN(C(=S)NCC(C)C)C3CCCC3)c(=O)[nH]c12 returned RE007 growth inh 9%, Cruzain inh Det -8.7%, SARS PLpro yeast -7%, LASV entry inh -17%, NS1 inh 4%, StopGo reporter -9%, Marburg entry inh inconclusive and Cruzain inh noDet 13%.
CCOc1ccc(CC(=O)NCCS(=O)(=O)N2CCN(c3ccccc3OC)CC2)cc1 was read as Cruzain inh Det -2.3%, LASV entry inh inconclusive, StopGo reporter inconclusive and Cruzain inh noDet inconclusive.
`CCCCNS(=O)(=O)c1ccc2nc(-c3cccnc3)cc(C(=O)NCCCOC)c2c1` gave RE007 growth inh 8%, SARS PLpro yeast -4%, LASV entry inh 4%, StopGo reporter 94%[activator] and Marburg entry inh -3%[46.1 µM].
Screening CCN(CC)C(=O)c1ccc(NC(=O)c2ccc(-c3nn(C)c(=O)c4ccccc34)cc2)cc1 returned RE007 growth inh -1%, Cruzain inh Det -1.9%, SARS PLpro yeast 1%, LASV entry inh 13%, NS1 inh 0%, StopGo reporter inconclusive, Marburg entry inh inconclusive and Cruzain inh noDet 10%.
Screening COc1ccc2c(c1)CCc1cn[nH]c1-2 returned RE007 growth inh -10%, SARS PLpro yeast -3%, NS1 inh 0% and StopGo reporter 30%.
For Cc1ccnc(NC(=O)c2ccoc2C)c1 the results were RE007 growth inh inconclusive, Cruzain inh Det -2.9%, SARS PLpro yeast -12%, LASV entry inh inconclusive, NS1 inh 2%, StopGo reporter 73%[activator], Marburg entry inh 10% and Cruzain inh noDet -9%.
O=C(c1ccc2c(c1)N(Cc1ccc(F)cc1Cl)C(=O)c1ccccc1S2)N1CCC2(CC1)OCCO2 was read as Cruzain inh Det -0.3%, LASV entry inh inconclusive, StopGo reporter -4% and Cruzain inh noDet inconclusive.
For Cc1ccc(SC(=O)c2c(C)noc2-c2cc(C)on2)cc1 the results were RE007 growth inh -23%, SARS PLpro yeast -2%, LASV entry inh 2%[46.1 µM], NS1 inh -48%, StopGo reporter inconclusive and Marburg entry inh -7%[46.1 µM].
CCOc1cccc(/C=N/NC(=O)c2ccc3c(c2)OCCO3)c1O was read as RE007 growth inh -17%, SARS PLpro yeast -1%, LASV entry inh inconclusive, NS1 inh 12%, StopGo reporter 10% and Marburg entry inh inconclusive.
Screening COc1ccc(N2C(=O)C3CCCN3C2c2ccc(Cl)cc2)cc1 (stereo not given) returned RE007 growth inh 8%, Cruzain inh Det 4.0%, SARS PLpro yeast inconclusive, NS1 inh inconclusive, StopGo reporter -12%, Marburg entry inh 3% and Cruzain inh noDet -3%.
Cc1cccc(Cn2ccc(-c3ccc(Cl)cc3)c(C#N)c2=O)c1 was read as RE007 growth inh -2%, Cruzain inh Det -0.2%, SARS PLpro yeast 0%, LASV entry inh 3%, NS1 inh 1%, StopGo reporter -16%, Marburg entry inh -11% and Cruzain inh noDet inconclusive.
For CCC1=NN(C(=O)Cc2ccc([N+](=O)[O-])cc2)C(O)(c2ccc(Br)cc2)C1 (stereo not given) the results were RE007 growth inh 40%, Cruzain inh Det -7.7%, SARS PLpro yeast -32%, LASV entry inh 2%, NS1 inh -10%, StopGo reporter -13%, Marburg entry inh 0% and Cruzain inh noDet 3%.
Cc1nnc(N2CCCC(C(=O)NCCN(C)C)C2)c2nn(-c3ccccc3)c(C)c12 (stereo not given) was read as Cruzain inh Det -16%, LASV entry inh -16%[46.1 µM], StopGo reporter -9% and Cruzain inh noDet -15%.
`COCCn1nnnc1C(c1cc2cc(C)ccc2[nH]c1=O)N1CCCCCC1` (stereo not given) gave RE007 growth inh 2%, Cruzain inh Det -3.9%, SARS PLpro yeast 2%, LASV entry inh -22%, NS1 inh -3%, StopGo reporter 10%, Marburg entry inh 9% and Cruzain inh noDet 0%.
For CCOC(=O)c1c(NC(=O)C(C)Sc2cn(C)c3ccccc23)sc2c1CCC2 (stereo not given) the results were RE007 growth inh 8%, Cruzain inh Det -4.1%, SARS PLpro yeast -4%, LASV entry inh 15%, NS1 inh 0%, StopGo reporter -22%, Marburg entry inh 3% and Cruzain inh noDet inconclusive.
`O=C(O)[C@@H]1CSC2c3ccccc3C(=O)N21` (stereo not given in full) gave RE007 growth inh -7%, SARS PLpro yeast -1%, NS1 inh 0% and StopGo reporter -9%.
Screening COc1ccc(Nc2nc(-c3cccc(Cl)c3)c3c(n2)-c2ccccc2OC3)cc1 returned Cruzain inh Det -4.1%, LASV entry inh 4%[46.1 µM], StopGo reporter -23%, Marburg entry inh inconclusive and Cruzain inh noDet 5%.
`Cc1ccc[n+](CC(=O)Nc2cccc(Cl)c2)c1` gave RE007 growth inh -18%, SARS PLpro yeast -3%, LASV entry inh 0%[46.1 µM], NS1 inh 3%, StopGo reporter 3% and Marburg entry inh inconclusive.
`NC(=O)C1(N2CCCCC2)CCN(C(=S)Nc2ccc(S(N)(=O)=O)cc2)CC1` gave RE007 growth inh -6%, SARS PLpro yeast 1%, NS1 inh 2% and StopGo reporter 13%.
CC(C)(C)c1ccc(C(=O)NCc2nnc(SCC(=O)N3CCCc4ccccc43)n2-c2ccccc2)cc1 was read as RE007 growth inh -1%, Cruzain inh Det -2.9%, SARS PLpro yeast 13%, LASV entry inh inconclusive, NS1 inh 1%, StopGo reporter inconclusive, Marburg entry inh -3% and Cruzain inh noDet 2%.
For CC(OC(=O)c1ccc(NS(=O)(=O)c2ccc3[nH]c(=O)[nH]c3c2)cc1)C(N)=O (stereo not given) the results were RE007 growth inh 8%, SARS PLpro yeast 3%, LASV entry inh -7%[46.1 µM], NS1 inh 2%, StopGo reporter 1% and Marburg entry inh 4%[46.1 µM].
CCN(CC)c1nc2ccccc2nc1C(=O)Nc1cccc(C(C)=O)c1 was read as Cruzain inh Det -1.9%, LASV entry inh inconclusive, StopGo reporter inconclusive and Cruzain inh noDet 4%.
For C=CCOC(=O)COc1ccc2c(C)c(CC)c(=O)oc2c1 the results were RE007 growth inh inconclusive, Cruzain inh Det -4.3%, SARS PLpro yeast inconclusive, LASV entry inh 18%, NS1 inh -45%, StopGo reporter -2%, Marburg entry inh -2% and Cruzain inh noDet 21%.
`COc1cccc(C(=O)NCC(=O)N2CCC(C)CC2)c1` gave RE007 growth inh 1%, Cruzain inh Det 4.8%, SARS PLpro yeast 2%, LASV entry inh inconclusive, NS1 inh -11%, StopGo reporter 38%[activator], Marburg entry inh 18% and Cruzain inh noDet -4%.
Screening Cc1ccc(C(=O)N/N=C\c2ccccn2)cn1 returned RE007 growth inh 21%, SARS PLpro yeast -3%, LASV entry inh -8%, NS1 inh -4%, StopGo reporter 15% and Marburg entry inh inconclusive.
Screening Nc1c(-c2nc(-c3ccc(F)cc3)cs2)c2ccccn2c1C(=O)c1ccc2c(c1)OCO2 returned Cruzain inh Det 1.1%, LASV entry inh 19%[46.1 µM], StopGo reporter -15%, Marburg entry inh 20%[46.1 µM] and Cruzain inh noDet -29%.
Screening CS(=O)(=O)N1CCc2cc(C(=O)NC3CC3)ccc21 returned RE007 growth inh 10%, SARS PLpro yeast 4%, LASV entry inh 9%[46.1 µM], StopGo reporter 9% and Marburg entry inh 6%[46.1 µM].
COc1ccc(C(=O)COC(=O)CCCN=C2NS(=O)(=O)c3ccccc32)c(OC)c1 was read as RE007 growth inh 1%, SARS PLpro yeast 2%, LASV entry inh 14%, StopGo reporter 1% and Marburg entry inh 15%.
Screening O=C(COC(=O)c1cccnc1Cl)c1ccc(OC(F)F)cc1 returned RE007 growth inh -10%, SARS PLpro yeast 1%, LASV entry inh 3%, StopGo reporter -8% and Marburg entry inh 3%[46.1 µM].
Screening CCn1c(=O)c2ccccc2n(Cc2ccccc2C)c1=O returned RE007 growth inh 25%, SARS PLpro yeast -4%, NS1 inh -4% and StopGo reporter -4%.
COC(=O)c1ccccc1NC(=O)C1CCCO1 (stereo not given) was read as RE007 growth inh -7%, Cruzain inh Det -1.8%, SARS PLpro yeast 6%, LASV entry inh 6%, NS1 inh -17%, StopGo reporter -14%, Marburg entry inh inconclusive and Cruzain inh noDet -2%.

Screening data deposited in PubChem BioAssay by National Center for Advancing Translational Sciences (NCATS).
